# AmpC nodet inh: AmpC beta-lactamase inhibition, detergent-free assay; P00811; AmpC nitrocefin hydrolysis, absorbance 480 nm, no detergent; potencies from a single point are estimates; Potency, µM (series often up to 28.7 µM), for the others: at the top dose activity change, negative = inhibition; 1.8% of 71,000 active; AID 585; active = falling curve, for most hits resting on a single point; inconclusive = weak or doubtful change; inactive = flat or rising curve; further: % of control where 0% means no effect; about half of the hits show no inhibition at the top dose; a quarter of the inactives give rising signals
# Target sequence (P00811 whole entry, looked up): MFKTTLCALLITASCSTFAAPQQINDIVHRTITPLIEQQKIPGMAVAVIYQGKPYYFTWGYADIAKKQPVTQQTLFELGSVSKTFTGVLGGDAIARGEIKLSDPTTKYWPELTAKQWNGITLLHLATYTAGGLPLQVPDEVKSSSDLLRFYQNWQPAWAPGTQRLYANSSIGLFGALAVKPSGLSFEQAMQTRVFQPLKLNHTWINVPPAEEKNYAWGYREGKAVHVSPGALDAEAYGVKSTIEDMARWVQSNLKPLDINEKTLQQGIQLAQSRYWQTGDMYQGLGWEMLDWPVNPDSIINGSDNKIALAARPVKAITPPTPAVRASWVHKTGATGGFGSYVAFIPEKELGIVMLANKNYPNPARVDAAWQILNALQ
#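 AmpC, 20 mM phosphate pH 7.0; 15 min cpd preinc, RT; start with nitrocefin (800 uM stock); A480 kinetic read, 20 s intervals, 4 min. No-enzyme wells = negative control.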
# Active calls of the source: *; ? = inconclusive; [ ] = remark or other dose. Potency means the concentration at half of the fitted maximal effect. Only part of the results is shown; the hit share may differ from the screen's.
SMILES,AmpC nodet inh
O=C(Nc1c(F)cc(F)cc1Br)c1cc(-c2ccco2)on1,-15%
Cc1ccc(NC(=O)CS(=O)CC(=O)NCC2CCCO2)cc1 (centres undefined),0%
CCOC(=O)c1c(C)n(CCOC)c2ccc(O)cc12,-10%
CCC/C=C(\CCC)C(NP(=O)(c1ccccc1)c1ccccc1)c1ccccc1 (centres undefined),70%
COc1ccc(-n2c(=O)c3c4c(sc3n3cnnc23)CC(C)CC4)cc1 (centres undefined),1%
CC(C)N1CC(C(=O)Nc2nc3ccccc3s2)CC1=O (centres undefined),22%
Nc1nc(N)c(N=Nc2ccc([As](=O)(O)O)c(O)c2)c(N)n1,0%[5.75 µM]
Cc1ccc(-c2nc3ccccc3c(=O)n2CCCn2ccnc2)cc1,12%
CC(=O)N1CCN(C)CC1,6%
COc1ccc(C)cc1-n1c(N)c(C#N)c(C#N)c1-c1ccc(OC)c(OC)c1OC,48%
C#CCOc1nc(OCC#C)nc(OCC#C)n1,-6%
O=C(NCc1ccco1)c1cc(-c2ccc3c(c2)OCO3)on1,-6%
O=C(C1CCC1)N1CCc2cc(S(=O)(=O)NCC3COc4ccccc4O3)ccc21 (centres undefined),-8%
Cc1ccc(C(=O)CC2(O)C(=O)N(C)c3ccccc32)o1 (centres undefined),4%
NS(=O)(=O)c1ccc(NC=C2C(=O)OC3(CCCCC3)OC2=O)cc1,-10%
CC(C)CC(=O)Nc1c2c(nn1-c1ccc(F)cc1)CSC2,4µM*[single pt active]
O=C(O)CCN1C(=O)c2ccccc2C1=O,1%
COC(=O)c1cc(OC)c(OC)cc1-n1cnc2cc(OC)c(OC)cc2c1=O,4%
CCCN1CCC(NC(=O)Nc2ccc(OC)c(OC)c2)CC1,-12%
CCc1ccc(-c2nc(CN3CCC(C(=O)NCCc4ccc(OC)c(OC)c4)CC3)c(C)o2)cc1,150%
CCN(c1cccc(C(F)(F)F)c1)S(=O)(=O)c1ccc2c(c1)CCN2C(C)=O,78%
COc1cccc(-n2c(SCC(=O)OC(C)C)nnc2-c2cccnc2)c1,42%
COCCN(C(=O)Nc1ccc(OC)cc1OC)C1CCN(C(C)=O)CC1,20%
O=C(O)CCC(=O)N1CCC[C@H]1C(=O)O,-5%
CCCN1CC[C@@H]2c3cc(O)ccc3CC[C@H]21,5%
CCOCCCn1c(=S)[nH]c2cc(C(=O)N3CCC(C(N)=O)CC3)ccc2c1=O,9%
Cc1noc(C)c1S(=O)(=O)N1CCC(C(=O)Nc2ccccn2)CC1,1%
COc1ccc(-c2nnc3n2N=C(c2cccc(Br)c2)CS3)cc1OC,-1%
Cc1cc(C)c(S(N)(=O)=O)c(C)c1-n1cnnn1,5%
CCOc1ccc(C(=O)N(Cc2ccc(N(C)C)cc2)C2CCS(=O)(=O)C2)cc1 (centres undefined),66%
Cc1nn(C(C)(C)C)c(OC(=O)C2CCCC2)c1S(=O)(=O)c1ccccc1,37%
C=CCBr,-6%
CC(C)Cn1c(N)c(C(=O)COC(=O)C2CCCCC2)c(=O)n(C)c1=O,38%
O=c1c(-c2ccccc2)nc2cncnc2n1Cc1ccc(F)cc1,42%
O=C(Nc1nc(-c2cccs2)cs1)c1ccc(Cl)s1,?
CN(Cc1nc(-c2cccnc2)no1)S(=O)(=O)c1ccc2ccccc2c1,55%
CC1=C(c2ccccc2)[N+](=O)C2(CCCC2)N1[O-],7%
COC(=O)c1ccc(C(NC(=O)OCc2ccccc2)/C(=C/[C@@H](C)C(=O)NCc2ccccc2)c2cccnc2)cc1 (some centres undefined),91%
O=C(NCc1ccc(F)cc1)c1cc2ccccn2n1,-6%
CCCCCCN(C(=O)CCCCCN1C(=O)NC(c2ccc(-c3ccccc3)cc2)C(C(=O)OCc2ccccc2)=C1C)C(C(=O)NCCCC)c1ccc(O)cc1 (centres undefined),-20%
O=C(NC(O)C(=O)c1ccccc1)c1cccs1 (centres undefined),-6%
COc1ccccc1CN1CCC2(CC1)CCN(C(=O)c1cccc(F)c1)CC2,23%
O=c1c2ccccc2[nH]c(=S)n1Cc1cccnc1,-10%
CCNc1sc(C(=O)c2cccs2)c(N)c1-c1nc2ccccc2s1,0.02µM*
COc1cccc(NC(=O)CCN2CCN(C)CC2)c1,-9%
N#CC1=C(N)SC(N)=C(C#N)C1c1ccnc2ccccc12,-21%
O=C(Nc1ccccc1OC(F)F)c1ccc(Br)o1,16%
O=S(=O)(c1ccc2ccccc2c1)N1CCN(S(=O)(=O)N2CCOCC2)CC1,33%
COC(=O)c1ccccc1NC(=O)c1cnc2sccn2c1=O,-12%
Cc1cc(C(=O)CSc2nnc(-c3ccco3)o2)c(C)n1CC1COc2ccccc2O1 (centres undefined),1%
CC(C)(C)c1cc(C=C(C#N)C#N)cc(C(C)(C)C)c1O,-7%
N[C@H](CCC(=O)NCS(=O)(=O)O)C(=O)O,2%
COCCNC(=O)CN(C(=O)CCC(=O)Nc1nccs1)c1ccccc1OC,8%
CC(NC(=O)c1cccs1)C(=O)NC1=NCCS1 (centres undefined),-4%
CCc1cc2c(c(CC)n1)CCC(=O)N2Cc1ccc(-c2ccccc2-c2nn[nH]n2)cc1,26%
COc1ccccc1CN1CCC2(CC1)CCN(C(=O)c1c(C)noc1C)CC2,-9%
O=C(CSCc1nc2ccccc2[nH]1)N1CCN(c2ccc(F)cc2)CC1,29%
Cc1ccc(CNC(=O)c2ccccc2NS(C)(=O)=O)cc1,1%
CC(=O)Nc1sc2c(c1C(c1cccs1)N1CCOCC1)CCCC2 (centres undefined),145%
CCOC(=O)C1C(=O)N(C(=O)c2ccc(OC)cc2)CC1c1ccccc1 (centres undefined),9%
# Continuation.
SMILES,AmpC nodet inh
c1csc(-c2ncc3ccccn23)c1,-3%
O=C(CN1CCOCC1)Nc1ccc(OCc2ccccc2)cc1,23%
O=P(O)(O)CP(=O)(O)O,-17%
O=C(Nc1ccc(-c2cn3ccccc3n2)cc1)c1cc(Br)ccc1O,-11%[5.75 µM]
COC(=O)c1ccc(CSc2nnc3c(Cl)cc(Cl)cn23)o1,7%
COCc1c(C)cc(C)c(/C=N/O)c1C,3%
COCCCn1c(-c2ccco2)nc2ccccc2c1=O,3%
CCOC(=O)N1CCN(S(=O)(=O)c2ccc(C)c(C)c2)CC1,25%
CCOC(=O)CC1Sc2ccccc2NC1=O (centres undefined),11%
COc1ccc(C2C(C(=O)O)CC(=O)N2C2CCCCC2)cc1 (centres undefined),-3%
CCN(C(=O)Cc1c(C(=O)O)[nH]c2ccccc12)c1cc(OC)ccc1OC,-22%
C/C(O)=C\c1nc(=O)c2c(C)cc(C)nc2n1-c1ccccc1,22%
Clc1ccc(COn2nnc3ccccc32)c(Cl)c1,-6%
N#Cc1ccc(CSc2nnc(-c3ccccn3)n2-c2ccccc2)cc1,35%
CCC1CCCCN1C(=O)CSc1nnc(CNC(=O)c2ccco2)o1 (centres undefined),2%
CCn1c(=O)cc(OCC(=O)N2CCCC2)c2ccccc21,19%
COc1ccc(COC(=O)c2n[nH]c3ccccc23)cc1F,-12%
CCOC(=O)Cn1c(=O)c2c(nc(Br)n2Cc2ccccc2)n(C)c1=O,53%
CC1(C)CC(=O)c2cc(C(=O)NCc3ccco3)c(=O)n(-c3ccc(Cl)cc3)c2C1,84%
COc1ccccc1-n1c(SCC(=O)NC2CCCC2)nc2cccnc21,10%
Cc1nc2ccccc2c(=O)n1CCCn1ccnc1,-11%
C[C@](N)(CCP(=O)(O)O)C(=O)O,8%
CCCn1c2c(c(O)c(C(=O)Nc3ncccc3C)c1=O)CCCC2,74%
CCOC(=O)c1cc2n(c1C)-c1ccccc1C2=O,-8%

# Given field by field: 4 of the compounds above
Cc1nc2ccccc2c(=O)n1CCCn1ccnc1
- AmpC nodet inh: -11%
C[C@](N)(CCP(=O)(O)O)C(=O)O
- AmpC nodet inh: 8%
CCCn1c2c(c(O)c(C(=O)Nc3ncccc3C)c1=O)CCCC2
- AmpC nodet inh: 74%
CCOC(=O)c1cc2n(c1C)-c1ccccc1C2=O
- AmpC nodet inh: -8%

# The list goes on:
SMILES,AmpC nodet inh
Oc1ccc(C=Nc2cccc3ncccc23)c(O)c1,-24%
CCCC1(C(=O)OCC)NC(c2ccc(N(C)C)cc2)C2C(=O)N(c3ccc(OCC)cc3)C(=O)C21 (centres undefined),78%
O=c1cccc(-c2ccccc2)[nH]1,-5%
CC1=C(C(=O)OCc2ccccc2)C(c2cccc([N+](=O)[O-])c2)NC(=O)N1CCCCCC(=O)O (centres undefined),-2%
O=C(NC1CCCCCC1)c1cccc(N2CCCC2=O)c1,16%
CN(C)CCO[C@@H](c1ccc(Cl)cc1)c1ccccn1,-3%[12.8 µM]
O=C(OCc1nnc(-c2ccccc2)o1)C1CCN(S(=O)(=O)c2cccs2)CC1,37%
Cc1cc2ccccc2c(=O)n1CC(=O)NCC(=O)N1CCCC1,-2%
Cc1cc(=O)[nH]c(SCn2nnc3ccccc3c2=O)n1,0%
COc1ccc(-c2nnc(SCC(=O)N3CCCC3)o2)cc1OC,14%
CCS(=O)(=O)N1CCC(C(=O)N2CCOCC2)CC1,-3%
COc1ccc2nc(SCC(=O)N3CCCCCC3)c(C#N)cc2c1,63%
COc1ccc(N(Cc2cc3cc(OC)ccc3[nH]c2=O)C(=O)c2cccnc2)cc1,33%
O=C(CN1CCN(c2ccccn2)CC1)Nc1ccc(Cl)c(C(F)(F)F)c1,84%
CCOC(=O)c1ccc(N2C(=O)c3n[nH]c(C)c3C2c2cccnc2)cc1 (centres undefined),7%
COc1cccc(C(=O)NCc2nnc(SCC(=O)Nc3nccs3)n2-c2cccc(C)c2)c1,55%
C=CCn1c(COc2ccccc2)nnc1SCC(=O)Nc1ccc(S(N)(=O)=O)cc1,3%
O=C(Nc1ccc(N2CCCC2)cc1)c1cccc(F)c1,-3%
Cc1ccc2cc(CCNC(=O)CC(C)C)c(=O)[nH]c2c1,5%
O=C(CSc1nnc(NCc2ccccc2)s1)c1ccco1,-7%
Cc1c(C(=O)OCc2cc(=O)n3cc(Br)ccc3n2)oc2ccccc12,-7%
Cc1ccc(C)c(C(=O)NCc2ccncc2)c1,-8%
COc1cc(CCN)c(OC)c(OC)c1,-6%[5.75 µM]
COc1cc(C(=O)N2CCN(c3ccc(C)cc3C)CC2)cc(OC)c1OC,122%
Nc1cc(N)nc(SCc2cc(=O)oc3cc4c(cc23)CCC4)n1,4%
CCOc1cc(C2C(C(=O)c3ccc(C)cc3)=C(C(=O)OC)Nc3nnnn32)ccc1O (centres undefined),-14%
CN1C(=O)NC2C1N(S(C)(=O)=O)CCN2S(C)(=O)=O (centres undefined),-25%
COC(=O)C1=C(C)N(c2ccc(F)c(Cl)c2)C(=O)C1,7%
CCCn1c(SCC(=O)N2c3ccccc3Sc3ccccc32)nc2c1c(=O)n(C)c(=O)n2C,141%
Cc1nc(NC(=O)C2CC2)sc1C(=O)N1CCCCC1,6%
Oc1c(C(O)(c2ccccc2)c2ccc3ccccc3c2O)ccc2ccccc12,?
Cc1oncc1C(=S)Nc1ccccc1,-2%
COC(=O)c1ccc(CSc2nnnn2-c2ccc(C)cc2C)o1,13%
COc1ccc(OC)c(C(c2nnnn2C2CCCC2)N2CCc3ccccc3C2)c1 (centres undefined),33%
COc1ccc(NC(=O)C2CCCN2S(=O)(=O)c2cccc3cccnc23)c(OC)c1 (centres undefined),49%
CCOC(=O)C1Cc2ccccc2C(=O)O1 (centres undefined),-2%

# Grouped by structure, the compounds so far containing a Cl atom (7)
SMILES,AmpC nodet inh
O=C(Nc1nc(-c2cccs2)cs1)c1ccc(Cl)s1,?
COC(=O)c1ccc(CSc2nnc3c(Cl)cc(Cl)cn23)o1,7%
Clc1ccc(COn2nnc3ccccc32)c(Cl)c1,-6%
CC1(C)CC(=O)c2cc(C(=O)NCc3ccco3)c(=O)n(-c3ccc(Cl)cc3)c2C1,84%
CN(C)CCO[C@@H](c1ccc(Cl)cc1)c1ccccn1,-3%[12.8 µM]
O=C(CN1CCN(c2ccccn2)CC1)Nc1ccc(Cl)c(C(F)(F)F)c1,84%
COC(=O)C1=C(C)N(c2ccc(F)c(Cl)c2)C(=O)C1,7%

# The results go on:
SMILES,AmpC nodet inh
CC1=Nc2ccc(C)cc2N(Cc2ccccc2)C(=O)C1,?
COc1cc(C=C(C#N)C#N)cc(O)c1O,-20%
CCN(CC)CCN=CC1=C(O)CNC1=O,-2%
COC(=O)CN(c1ccc(F)cc1)S(=O)(=O)c1ccccc1,-6%
CCOC(=O)[C@@H]1[C@@H]2c3ccccc3-c3ccccc3[C@H]2C[C@H]1O,34%[5.75 µM]
N#CCCn1nc(-c2ccccc2)cc1Nc1ccccc1NC(=O)c1cccs1,2%
Cc1ccc(-c2noc(C3CCCN(C(=O)C4CCCCC4)C3)n2)o1 (centres undefined),52%
O=C(NCc1ccc(Cl)cc1)c1ccc(COCC(F)(F)F)o1,9%
COc1cccc(-c2nn3c(-c4cc(C)[nH]n4)nnc3s2)c1,11%
COc1cccc(C2/C(=C(/O)c3ccc(F)cc3)C(=O)C(=O)N2CCN(C)C)c1 (centres undefined),5%
c1nc(N2CCOCC2)c2c3c(sc2n1)CCCC3,19%
CCn1c(=O)cc(SCC(=O)N2CCCCC2)c2ccccc21,50%
N#Cc1nc(-c2ccco2)oc1NCc1cccnc1,-10%
OC1(C(O)(c2ccc(-c3ccccc3)cc2)c2ccc(-c3ccccc3)cc2)CCCCC1,-4%[5.75 µM]
COc1ccc(-n2c(=O)c(C)nc3cnc(Oc4ccccc4)nc32)cc1,64%
Cc1nc(S(=O)(=O)NC2CCCCC2)c(C#N)c(C)c1Cl,-5%
Cc1cc(=O)oc(C)c1C(=O)NCc1ccccn1,5%
Cn1ccnc1SCC(=O)NC12CC3CC(CC(C3)C1)C2,4%
C/C(=N/O)c1ccc2cc(Br)c3ccccc3c2c1,-13%[5.75 µM]

# Screening results deposited in PubChem BioAssay by National Center for Advancing Translational Sciences (NCATS).
